Arbovirus inh = blocks arbovirus infection. arbovirus infection cell-based antiviral screen. inhibition, % at 10 µM. actives 0.37% (n = 200,000);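 active = inhibition from about 30%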;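 note: bluetongue infection of BSR cells; cell survival read as ATP light after 72 h; 0% = infected wells without compound and 100% = uninfected wells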
RecA intein inh = inhibitors of M. tuberculosis RecA intein splicing | inhibition, %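 (about 9 µM by stock and volumes)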 | cell-free RecA intein splicing, fluorescence | AID 2221 | P9WHJ3 | actives 0.75% (n = 290,000); in the data active = inhibition above about 30%; inconclusive = no clear call, values can overlap the other calls;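 note: 0% = vehicle wells and 100% = reference inhibitor control wells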
Target sequence (P9WHJ3 whole entry, looked up): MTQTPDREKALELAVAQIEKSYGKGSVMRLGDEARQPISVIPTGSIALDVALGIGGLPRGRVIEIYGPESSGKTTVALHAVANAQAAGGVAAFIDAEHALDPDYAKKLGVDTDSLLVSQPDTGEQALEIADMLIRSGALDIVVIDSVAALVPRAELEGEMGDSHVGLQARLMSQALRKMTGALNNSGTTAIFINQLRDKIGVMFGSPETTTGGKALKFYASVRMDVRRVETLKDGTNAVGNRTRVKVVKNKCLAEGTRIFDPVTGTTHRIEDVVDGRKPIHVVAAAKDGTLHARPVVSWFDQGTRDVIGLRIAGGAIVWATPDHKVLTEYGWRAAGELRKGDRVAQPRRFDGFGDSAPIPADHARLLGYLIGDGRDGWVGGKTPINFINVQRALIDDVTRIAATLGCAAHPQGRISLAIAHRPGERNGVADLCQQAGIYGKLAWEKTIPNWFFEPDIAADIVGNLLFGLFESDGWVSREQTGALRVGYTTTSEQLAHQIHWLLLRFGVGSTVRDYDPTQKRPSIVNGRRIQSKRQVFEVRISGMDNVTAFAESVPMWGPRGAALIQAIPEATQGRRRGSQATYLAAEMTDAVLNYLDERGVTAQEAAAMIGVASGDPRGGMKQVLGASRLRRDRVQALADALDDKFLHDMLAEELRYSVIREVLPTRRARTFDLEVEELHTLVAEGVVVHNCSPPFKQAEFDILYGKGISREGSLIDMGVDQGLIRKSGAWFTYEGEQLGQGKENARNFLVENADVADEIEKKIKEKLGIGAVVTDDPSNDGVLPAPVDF
Mtb H37Rv = M. tuberculosis H37Rv growth inhibitors, H37Rv strain (AID 1626) | actives 0.95% (n = 220,000) | M. tuberculosis H37Rv growth inhibition; higher % means a stronger effect | inhibition, % at 10 µM, or IC50 in µM where a hit was titrated;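 active = confirmed in a dose series; inconclusive = inhibition above 80% but not taken into the dose series; inactive = below 80% or under 30% at every dose of the series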;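 note: bacteria incubated seven days before Alamar blue readout; 0% = bacteria only wells and 100% = bacteria with antibiotic wells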
Mtb betalactam = beta-lactam sensitization of Mtb H37Rv | M. tuberculosis H37Rv growth with meropenem, percent inhibition; hits of this screen are not shown here | inhibition, % at 25 µM | actives 0.27% (n = 330,000);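 active = about 74% or more and at least 40 points above the plate without the antibiotic, then above 30% in a dose series; inconclusive = first-round hits that could not be retested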;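 note: growth measured after seven days incubation then overnight dye step; 0% = bacteria only wells and 100% = bacteria with antibiotic; twin plates without the antibiotic show which effects depend on it; some results filed as inactive read as strong as hits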
YopH PTP inh = inhibitors of Yersinia enterocolitica YopH tyrosine phosphatase | actives 0.16% (n = 140,000) | inhibition, %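 (about 10 µM by stock and volumes)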 | fluorescence Ex485/Em525;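 active = inhibition of 50% or more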;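 note: controls were vehicle for no effect and minimum signal wells for full effect; inactives centre near -20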
Arbovirus inh repeat = recorded beside Arbovirus inh, whose call it bears; inhibition, %; measured here: 10K subset replicate screen; many hits read low in the repeat;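 first of two repeat runs on a subset; 0% = infected and 100% = uninfected wells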
* marks the source's active call; other numbers are inactive results; ? = inconclusive; · = no result given; & = joins results of further samples. These rows are one share of the data, so the mix of outcomes need not match the whole.

SMILES	Arbovirus inh	RecA intein inh	Mtb H37Rv	Mtb betalactam	YopH PTP inh	others
CCOC(=O)C1CCN(C(=O)/C=C/c2ccc(OC)cc2)CC1	1	2.8	-4%	-3	-22
C=CCN(CC=C)c1ccc(N2C(=O)C3CCCCC3C2=O)cc1[N+](=O)[O-] (stereo unspecified)	6	-1.3	4%	-2	·
O=c1c2ccccc2nc(-c2cccc(Cl)c2)n1O	2	-1.7	67%	0	-47
Cc1cc2ccccc2n1CCNC(=O)c1ccc(S(=O)(=O)N2CCCCC2)cc1	6	4.1	12%	-10	-37
COc1ccccc1-n1cnnc1SCC(=O)N1CC(=O)Nc2ccccc21	-2	3.0	2%	-8	3
O=C(/C=C/c1cccc(F)c1)Nc1ccc(S(=O)(=O)Nc2ncccn2)cc1	·	0.6	9%	52	·
CCCCCCC(=O)N/N=C(\C)Cc1ccccc1	6	0.5	10%	3	-20
COCCNC(=O)C(c1ccc(C)cc1)N(C(=O)CCC(=O)Nc1ccccn1)c1ccc(F)cc1 (stereo unspecified)	·	7.6	·	3	·
CC(C)c1ccc(NC(=O)[C@@H](C)NC(=O)[C@@H]2Cc3ccccc3CN2)cc1	·	0.4	·	-5	·
Nc1nccnc1C(=O)OCC(=O)c1ccc[nH]1	·	1.8	·	-6	·
NS(=O)(=O)c1ccc(NC(=O)COC(=O)c2cc(Cl)ccc2[N+](=O)[O-])cc1	·	1.9	-2%	-3	·
CCN(CC)c1ccc(CNc2nc3ccccc3n2CC)cc1	·	-11	3%	-5	·
Cc1occc1C(=O)NCc1cccc(CNC(=O)c2ccoc2C)c1	-3	2.3	-4%	2	9
Nc1ncnc2nc(Sc3ccc(Cl)cc3)[nH]c12	-8	-3.9	9%	11	30
COc1ccc(OC)c(CCNC(=O)C2CCN(c3nnc(-n4cccc4)s3)CC2)c1	-2	5.5	1%	4	-5	Arbovirus inh repeat=-2
COc1ccc(C(=O)N(CCCO)Cc2cc3c(C)ccc(C)c3[nH]c2=O)cc1OC	0	0.0	-5%	·	-44
CC(=O)Nc1ccc(N(C(=O)c2ccco2)C(C(=O)NC2CCCC2)c2ccncc2)cc1 (stereo unspecified)	·	4.4	·	-4	·
CSc1ccc(CN2CCN(S(=O)(=O)Cc3ccccc3)CC2)cc1	·	0.1	·	-6	·
Cn1c(C(=O)OCC(=O)NCCc2ccccc2)cc2sccc21	3	-1.2	5%	-10	-45
COc1ccccc1-c1cc(C(F)(F)F)nc(N2CCCC2)n1	-10	·	-4%	2	-2
COc1ccccc1-n1c(CNc2c(C)cccc2C)nnc1SCC(=O)N1CCOCC1	7	2.6	2%	-6	-38
CCN1C(=O)CC(N2CCC(Nc3ccc(F)cc3)CC2)C1=O (stereo unspecified)	4	-0.1	0%	0	-38
CCOC(=O)Cc1cc(=O)n2[nH]c(-c3ccccc3)c(-c3ccccc3)c2n1	6	-2.8	-3%	-2	·
OC(CN1CCN(c2cccc(C(F)(F)F)c2)CC1)c1c[nH]c2ccccc12 (stereo unspecified)	5	6.5	-3%	-7	-23
COC(=O)Oc1ccc(/C=N/NC(=O)CN(c2ccccc2Cl)S(C)(=O)=O)cc1OC	7	·	-2%	1	-26
O=c1c(-c2nnc(SCc3ccc(Cl)c(Cl)c3)o2)cccn1Cc1ccccc1	2	9.0	3%	-6	-10
Cc1ccc2nc(-c3ccc(SCC(=O)Nc4nc(C)cs4)nc3)[nH]c2c1	-5	-0.6	1%	0	3
Cc1c(CCO)sc[n+]1CC(=O)OCCC12CC3CC(CC(C3)C1)C2	-2	-2.7	-3%	-5	-29
Cc1ccc2cc(CN(Cc3ccco3)C(=O)C3CCCCC3)c(=O)[nH]c2c1C	5	0.6	2%	-2	-30
CCc1ccc(O)c(CNCCNCc2cc(CC)ccc2O)c1	·	-1.3	·	11	·
CCCCn1c(N)c(N(CCC(C)C)C(=O)c2ccc(COc3ccccc3)o2)c(=O)[nH]c1=O	·	-1.6	·	-10	·
CC1Oc2ccccc2N(CC(=O)NC2CCCCC2)C1=O (stereo unspecified)	·	-1.9	·	3	·
O=c1c2ccccc2nc(/C=C/c2cccc([N+](=O)[O-])c2)n1CCCO	·	·	-3%	45	12
Cc1cc(C)[n+](-c2ccc(C(C)C)cc2)c2[nH]c(=O)[nH]c(=O)c12	2	-4.4	1%	4	-9
Cc1nc(NC(=O)COc2ccc(Cl)cc2)sc1C(=O)N(C)C	-7	-0.6	4%	2	-1
CCCOc1ccccc1/C=C1\SC(N2CCCCC2)=NC1=O	·	0.5	·	12	·
COc1ccc(-n2nnnc2SCC(=O)Nc2ccc(OC)cc2OC)cc1	·	-1.7	·	-4	·
Cc1cc(C)cc(N=C2NC(=O)CS2)c1	·	-1.1	·	-4	·
Nc1nnc(SCCCC(=O)c2ccc(F)cc2)s1	1	-0.7	8%	?	-36
CCOC(=O)c1sc(NC(=O)CSc2nnc(Cc3ccccc3)o2)c(C#N)c1C	6	-1.9	·	94	8
COc1ccc(N2C(=O)CC(=O)NC2=O)cc1	7	-7.3	0%	-20	-27
CCOC(=O)C1(Cc2ccccc2Cl)CCN(C(=O)CN2CCOC2=O)CC1	1	-3.7	-2%	5	·
CS(=O)(=O)N(CC(=O)N1CCN(c2ccccc2)CC1)Cc1ccc(Cl)cc1	-2	-0.5	-13%	·	-11
O=C(O)c1cc(-c2ccco2)[nH]n1	2	4.0	2%	3	-9
COc1ccc(NC(=O)C2CCCN(S(=O)(=O)c3cccnc3)C2)c(OC)c1 (stereo unspecified)	8	-1.3	-1%	-7	-44	Arbovirus inh repeat=2

Brought forward from above: 7 entries, then new ones.
SMILES	Arbovirus inh	RecA intein inh	Mtb H37Rv	Mtb betalactam	YopH PTP inh	others
Nc1nnc(SCCCC(=O)c2ccc(F)cc2)s1	1	-0.7	8%	?	-36
CCOC(=O)c1sc(NC(=O)CSc2nnc(Cc3ccccc3)o2)c(C#N)c1C	6	-1.9	·	94	8
COc1ccc(N2C(=O)CC(=O)NC2=O)cc1	7	-7.3	0%	-20	-27
CCOC(=O)C1(Cc2ccccc2Cl)CCN(C(=O)CN2CCOC2=O)CC1	1	-3.7	-2%	5	·
CS(=O)(=O)N(CC(=O)N1CCN(c2ccccc2)CC1)Cc1ccc(Cl)cc1	-2	-0.5	-13%	·	-11
O=C(O)c1cc(-c2ccco2)[nH]n1	2	4.0	2%	3	-9
COc1ccc(NC(=O)C2CCCN(S(=O)(=O)c3cccnc3)C2)c(OC)c1 (stereo unspecified)	8	-1.3	-1%	-7	-44	Arbovirus inh repeat=2
CCC(c1nnnn1C(C)(C)CC)N(CCCN1CCOCC1)Cc1cc2cccc(C)c2[nH]c1=O (stereo unspecified)	8	0.9	-6%	-6	-5
CC(C)NC(=O)COc1ccc2c(c1)C(=O)CC(C)(C)O2	-1	-13	1%	5	·
Cc1ccc(C(=O)N/C(=C\c2ccco2)C(=O)NCC2CCCO2)cc1C (stereo unspecified)	-8	2.1	-13%	-16	10
CCC(=O)N1CCN(c2ccccc2NC(=S)NC(=O)c2cccc([N+](=O)[O-])c2)CC1	2	-0.2	11%	1	·
CC(NC(=O)Cn1cc(C(F)(F)F)cc(Cl)c1=O)c1ccccc1 (stereo unspecified)	·	3.0	·	-10	·
CCOc1ccc(C(=O)NCC(=O)N2CCC3CCCCC3C2)cc1OCC (stereo unspecified)	·	2.3	·	-7	·
CCC1(C)Cc2c(sc3c2c(=O)n(C)c2nnc(SCc4ccc5c(c4)OCO5)n32)CO1 (stereo unspecified)	-27	0.2	-4%	·	-44
Nc1c(-c2ccc(F)cc2)cnn1C1CCS(=O)(=O)C1 (stereo unspecified)	-1	-0.8	-7%	-5	-19
CC1(C)OC(=O)N(CC(=O)Nc2ccccc2)C1(C)O (stereo unspecified)	-2	-0.3	-6%	-1	·
O=C(CCNC(=O)c1ccc([N+](=O)[O-])cc1)NCCC1=CCCCC1	·	0.4	·	-5	·
O=C(COc1ccc(F)cc1)N(Cc1ccco1)C1CCS(=O)(=O)C1 (stereo unspecified)	·	-0.2	·	7	·
O=C(CC1C(=O)NCCN1Cc1c(F)cccc1Cl)NC1CCCCCC1 (stereo unspecified)	·	-2.3	-12%	0	·
COc1cc(-c2nc(C)c(C(C)=O)n2O)ccc1OCC(=O)Nc1ccc(Cl)cc1	-6	-5.0	77%	99	·
CCNc1nc(C)cc(COC)c1C#N	9	-1.5	-2%	-3	-39	Arbovirus inh repeat=1
O=C(O)CCCC(=O)Nc1ccc(Oc2cccc(C(F)(F)F)c2)nc1	·	-0.5	-15%	2	·
O=C(Nc1nc2c(c(=O)[nH]1)CCCC2)C1CC1	1	0.4	-4%	-7	-3
COc1ccc(Oc2ncc(CN3CCN(c4ccccc4)CC3)s2)cc1	2	3.7	16%	4	-16
COc1ccc(N(CC(=O)NCCSC2CCCCC2)S(=O)(=O)c2ccccc2)cc1OC	·	-3.0	·	-4	·
CCC(N1CCOC1=O)S(=O)(=O)c1ccc(C)cc1 (stereo unspecified)	3	-0.5	-2%	-5	-9
Cc1ccc(S(=O)(=O)N2CCC(C(=O)OCC(=O)NC3(C#N)CCCCC3)CC2)cc1C	·	2.4	·	-2	·
CCn1c(C)nc2cc(C(=O)NNS(=O)(=O)c3c(F)cc(F)c(Cl)c3F)ccc21	11	2.7	-6%	-3	·
O=C(CCc1ccccc1Cl)Nc1cccc(S(=O)(=O)N2CCCC2)c1	·	0.9	·	-18	·
COC(=O)CC1C(=O)NCCN1C(=O)CSc1nnnn1-c1ccc(Cl)cc1 (stereo unspecified)	9	·	-3%	4	·
O=C(CNC(=O)c1ccccc1)N/N=C/C=C/c1ccccc1	·	0.1	·	1	·
Cc1nn(Cc2ccccc2)c(Cl)c1C(=O)OCC(=O)N1CCCC1	-8	·	3%	-1	·
CCCCC(=O)NC1(C(F)(F)F)NC(=O)N(Cc2ccccc2)C1=O (stereo unspecified)	20	-6.6	1%	5	·
COc1cccc(/C=N/NC(=O)c2ccccc2N(Cc2ccccc2)S(=O)(=O)c2ccccc2)c1OC	-12	12	·	35	-28
CS(=O)(=O)c1cnc(-c2ccccc2)nc1Oc1ccc(F)cc1	-4	11	-25%	3	-22
CC(C)(C)NC(=O)CN1CCC(O)(c2ccc3c(c2)OCO3)CC1	7	-1.0	-8%	-3	-8
COc1ccc(CCNC(=O)C(=O)NCC2OCCN2S(=O)(=O)c2ccc(OC)c(OC)c2)cc1 (stereo unspecified)	·	-5.7	·	-8	·
O=C(Cc1ccccc1)NN1C(=O)C2C(C1=O)C1C=CC2C12CC2 (stereo unspecified)	3	1.1	2%	-4	-46
COC(=O)c1cc(C#N)c(N2CCN(C)CC2)nc1C	1	-0.3	-3%	1	·
COc1cc(C2C(C(=O)c3ccco3)=C(O)C(=O)N2CCc2ccccc2)ccc1O (stereo unspecified)	6	-1.7	2%	8	-52	Arbovirus inh repeat=0
O=C(/C=C/c1ccccc1)NCC(=O)N/N=C/c1cccs1	·	-1.2	·	-12	·
COc1cccc2c(=O)n(CC(=O)NC3CCCC3)ccc12	5	-3.0	2%	0	-3	Arbovirus inh repeat=8
O=C(NCC1CCCO1)c1cc(-c2ccco2)nc2ccccc12 (stereo unspecified)	-5	-6.8	-1%	0	-37
CN1CCN(C(=O)c2ccc3c(c2)N(Cc2cccc(Cl)c2)C(=O)c2ccccc2S3=O)CC1 (stereo unspecified)	12	-1.0	-1%	-4	-41	Arbovirus inh repeat=1
CC(C)(C)c1csc(NC(=O)c2c(F)c(F)c(F)c(F)c2F)n1	·	31*	·	99	·
CC(=O)OCC[N+](C)(C)C	1&9	-0.1&-2.4&2.3	6%&-11%	-1&0&1	-1&-37
COc1cc(C(=O)NCC(=O)N/N=C/c2ccc(OC(=O)c3ccco3)cc2)cc(OC)c1OC	0	6.8	5%	5	·
O=C1c2ccccc2C(=O)N1CCCSc1nc2ccccc2o1	-3	0.3	0%	-4	-30
Cc1ccc2nc(-c3cccc(NC(=O)c4ccco4)c3)[nH]c2c1	-31	0.2	-10%	9	-11
CCOC(=O)C1C2C=CC3(CN(CCc4ccccc4)C(=O)C13)O2 (stereo unspecified)	7	0.2	6%	-3	-31
COCCCNC(=O)CN(c1cc(OC)ccc1OC)S(=O)(=O)c1ccccc1	5	-2.5	4%	-4	-51
COc1ccc(N2CCN(C(=O)c3oc4ccccc4c3C)CC2)cc1	5	11	6%	49	·
Cc1cccc(OCCCN2CCCCCC2)c1	-1	·	1%	-4	-8
Cc1cc(C(=O)OCC(=O)NC2CCCCC2)c(C)o1	4	1.6	-6%	-4	-7
COCc1cc(C)nc(N)c1C#N	6	-1.4	-4%	-16	·
